Compound activity (PubChem BioAssay)
Rce1 inh: yeast Ras-converting enzyme inhibition; yeast membranes, quenched prenylated peptide cleavage fluorescence; Q03530; calls only; actives 0.27% (n = 290,000);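 active means fall in fluorescence gain of 50% or more versus controls, with final raw signal at or below 3038400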;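 further: plate controls were neutral control wells for no effect and wells lacking membranes for full effect; tested at 10 µM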
MT1-MMP act inh: blocks activation of human MT1-MMP | P50281 | HT1080 RFP-PRO-GFP cells, GFP/RFP ratio fluorescence, overnight; percent of plate control window, DMSO zero | GFP/RFP ratio change, % at 20 µM | actives 0.061% (n = 360,000);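 active means GFP/RFP ratio change of at least 30% with cell ATP level not reduced by more than half and red fluorescence within 50% of control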; further: strong numbers were not always called active
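Test system: HT1080 RFP-PRO-GFP cells; Benchmarks: DMSO and RFP-L50D-GFP cell wells; Timing: cells overnight before dosing, compound overnight, 37 °C, 5% CO2; Compound: one 20 µM compound dose with 1% DMSO; Read-out: GFP/RFP fluorescence ratio.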
PABP FP inh: PABP-poly(A) binding inhibition; PABP-poly(A) RNA binding, fluorescence polarization; actives 1% (n = 290,000); inhibition, % at 35 µM; AID 2014;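 active means 50% or more with normal probe brightness, or confirmed in later tests; about a fifth of its hits are not listed in these tables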;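 further: calls also rest on retests at 20 µM and on dose response follow-up; controls were probe without protein and protein plus probe with vehicle; some compounds called inactive have numbers as strong as hits; many hits fall short of the cut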
Target sequence (P11940 whole entry, looked up): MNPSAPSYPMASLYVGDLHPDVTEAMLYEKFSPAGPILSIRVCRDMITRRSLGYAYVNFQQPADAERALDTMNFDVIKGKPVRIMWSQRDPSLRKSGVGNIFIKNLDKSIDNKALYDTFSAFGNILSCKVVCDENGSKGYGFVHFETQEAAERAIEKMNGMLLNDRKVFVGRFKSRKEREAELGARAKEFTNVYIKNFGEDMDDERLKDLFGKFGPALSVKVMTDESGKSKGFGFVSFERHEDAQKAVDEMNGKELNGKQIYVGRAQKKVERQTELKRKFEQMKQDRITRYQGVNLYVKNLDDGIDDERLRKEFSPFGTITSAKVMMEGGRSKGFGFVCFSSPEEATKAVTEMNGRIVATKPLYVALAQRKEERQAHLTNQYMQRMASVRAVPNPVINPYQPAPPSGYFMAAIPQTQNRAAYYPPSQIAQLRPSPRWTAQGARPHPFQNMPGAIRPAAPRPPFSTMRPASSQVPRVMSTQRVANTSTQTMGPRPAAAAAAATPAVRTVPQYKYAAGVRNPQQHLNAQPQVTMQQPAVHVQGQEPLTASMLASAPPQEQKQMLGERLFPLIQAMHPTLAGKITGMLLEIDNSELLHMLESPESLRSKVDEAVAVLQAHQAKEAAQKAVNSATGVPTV
HIV Env fusion: HIV envelope-mediated fusion inhibition | HeLa-JRFL Env/CEM21 cell fusion, luciferase | inhibition, % at 12.3 µM | actives 1.1% (n = 360,000);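 active means mean replicate inhibition score of at least 50 and every replicate individually at or above 50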;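 further: 0% = plate neutral controls and 100% = maraviroc near 300 nM; one replicate is shown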
Yeast UUG start: yeast start codon fidelity modulation. S. cerevisiae UUG-firefly luciferase reporter, luminescence/redox ratio. activity score, % at 18.7 µM. actives 0.13% (n = 350,000). AID 602363;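 active means replicate mean at a twofold rise or more, about +100% in these data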;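 further: firefly luciferase made from a UUG start codon reports start codon fidelity; reporter light over untreated wells divided by growth signal over untreated wells; some hits fall short of that in this replicate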
CSC inhib: blocks cancer stem cells; cancer stem cell-like cells viability, luminescence; inhibition, % at 7.5 µM; actives 1.1% (n = 300,000); AID 2717;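 active means mean at 75% or more and at least half the replicates too; tested in HMLE shEcad cells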;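 further: 0% = median of negative and 100% = median of positive control wells; the first replicate is given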
eIF4H inh: inhibitors of RNA binding by human eIF4H; actives 0.94% (n = 290,000); inhibition, % at 35 µM; eIF4H fluorescence polarization binding assay; Q15056;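 active means 50% or more with normal probe brightness, or confirmed in later tests; about a fifth of its hits are not listed in these tables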;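 further: calls also rest on retests at 20 µM and on dose response follow-up; 0% = protein and probe with vehicle and 100% = probe without protein; strong numbers were not always called active; many hits fall short of the cut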
eIF4H inh retest: recorded beside eIF4H inh, whose call it bears; inhibition, %; compound at 20 µM; confirmation average;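 mean of two retest wells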
PABP FP inh retest: also measured in PABP FP inh; calls as there; inhibition, %; compound at 20 µM; confirmation repeats;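 mean of two retest wells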
MT1-MMP act inh RFP: recorded beside MT1-MMP act inh, whose call it bears; RFP signal change, %; measured here: RFP expression control read;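 0 = vehicle wells; hits needed this value within 50% of zero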
* = called active by the depositor; i = inactive; . = not tested or not shown. The list is partial; count on the stated rates, not on these rows.

SMILES	Rce1 inh	MT1-MMP act inh	MT1-MMP act inh RFP	PABP FP inh	HIV Env fusion	Yeast UUG start	CSC inhib	eIF4H inh	others
O=C(C1=C(O)C(=O)N(CCN2CCOCC2)C1c1cccnc1)c1cc2ccccc2o1 (stereo unspecified)	.	-2	3	10	-34	-11	-6	1
COc1ccc(N2CCN(C(=O)c3cc4c(s3)-c3ccccc3S(=O)(=O)C4)CC2)cc1	i	-1	-4	10	14	-23	2	-6
Cc1cccc(N2CCN(C(=O)c3cn(C)c(=O)c4c3c3ccccc3n4C)CC2)c1C	i	-4	-11	0	.	38	60	-3
O=C(c1cc(-c2ccccc2)nc2ccccc12)N1CCN(c2ccccc2O)CC1	i	-2	-5	10	-2	16	4	-13
COc1cc(OC)cc(-n2nnnc2SCC(=O)N2CCCC2)c1	i	-6	-1	10	.	-4	-5	-4
O=C(COc1ccc(Cl)cc1)Nc1nnc(C2=COCCO2)o1	i	-2	3	7	3	.	-4	7
CCC(C)NC(=O)CSc1n[nH]c(-c2cc(Cl)ccc2OC)n1 (stereo unspecified)	i	-7	-3	-7	12	-14	-11	0
Cc1cc(-c2nnc(SCC(=O)Nc3ccccc3Cl)n2C)no1	i	4	1	4	-30	-39	-8	0
CCOC(=O)c1c(NC(NC(=O)C(C)C)C(Cl)(Cl)Cl)sc2c1CCC2 (stereo unspecified)	i	-46	-33	6	41	-13	101*	3
CCOC(=O)c1oc2nc3c(cc2c1N)COC(C)(C)C3	i	0	1	17	-31	19	-7	5
Cn1cnnc1SCC(=O)Nc1ccc2nc(SCc3cccc4ccccc34)sc2c1	i	2	-10	-1	.	.	-13	6
CC1(C)CC(=O)C=C(OC(=O)c2ccc(Cl)cc2)C1	i	1	7	-12	.	.	.	-4
CC(NC(=O)CSc1nc2ccccc2c(=O)[nH]1)c1ccccc1 (stereo unspecified)	i	4	0	-3	.	-36	-11	6
COC(=O)c1cc(NC2c3ccccc3C(=O)N2CCN2CCOCC2)cc(C(=O)OC)c1 (stereo unspecified)	i	-2	-1	6	-3	-3	-7	4
COc1ccc(Sc2nc(-c3ccccc3)ncc2C(=O)O)cc1	i	-1	-2	-24	6	.	-3	-5
CCOC(=O)c1cc(=O)[nH]c2ccccc12	i	-6	-6	1	-20	.	0	-3
COc1cc2nc(SCc3ccc(Cl)cc3Cl)n(Cc3cccs3)c(=N)c2cc1OC	i	-5	-11	-4	21	-13	46	-8
CCCCN(C(=O)c1cc(=O)[nH]c2ccccc12)c1c(N)n(CCCC)c(=O)[nH]c1=O	i	-2	3	3	-14	1	4	18
CC(C)Cn1cnc2c(SCc3ccccc3)nc(N)nc21	.	3	-4	.	-5	-23	.	.
COC(=O)c1c(C)noc1-c1ccc(Cl)cc1	i	-4	1	-3	-6	.	-14	-3
C=CCSc1nnc(NC(=O)c2cccc(S(=O)(=O)N(C)c3ccccc3)c2)s1	i	4	-8	-6	3	-8	-8	-1
COc1ccc(C2NC(=S)NC3=C2CCc2cc(OC)ccc23)cc1 (stereo unspecified)	i	0	0	9	-66	-22	-14	2
CCCC(C)NS(=O)(=O)c1ccccc1 (stereo unspecified)	.	0	4	-8	.	-16	11	-1
CCc1nc2cc([N+](=O)[O-])c([N+](=O)[O-])cc2[nH]1	i	-2	-2	-4	.	-4	-3	-2
O=C(N/N=C/c1c[nH]c2ccccc12)c1ccccc1	i	0	1	-12	-16	-4	-12	-13
SMILES	Rce1 inh	MT1-MMP act inh	MT1-MMP act inh RFP	PABP FP inh	HIV Env fusion	Yeast UUG start	CSC inhib	eIF4H inh	others
COc1ccc(CCNC(=O)COC(=O)CCC(=O)c2ccc(F)cc2)cc1	i	-1	1	2	3	54	-5	-2
Cc1cccc(OCC(=O)Nc2ccccc2C(=O)N2CCOCC2)c1	i	-1	7	-4	9	-4	-18	-8
C/C(=N/n1cnnc1)c1cccnc1	i	9	-9	2	-19	-7	-17	6
CC(=O)C1=C(C)NC(SCC(N)=O)=C(C#N)C1c1cccnc1 (stereo unspecified)	i	-6	2	9	.	-12	22	-7
Cc1cc(C)c(NC(=O)C(C)Sc2nc3ccc(N4C(=O)c5ccccc5C4=O)cc3s2)c(C)c1 (stereo unspecified)	i	-1	3	20	-12	-4	.	-2
Cc1ccc(CCNC(=O)C2CCC(CNc3c(N4CCCC4)c(=O)c3=O)CC2)cc1 (stereo unspecified)	i	3	3	-8	.	.	-15	-6
O=C(Cn1cncc1-c1ccc([N+](=O)[O-])cc1)Nc1ccccc1F	i	7	-2	-11	-31	-15	-11	-8
O=C(c1ccccc1)c1ccc(OCC(O)CNCc2cccc(Cl)c2)cc1 (stereo unspecified)	i	7	4	9	0	7	1	-5
CCOc1cc(C(=O)OCc2cc(=O)n3c(C)csc3n2)ccc1OC	.	-7	-2	.	12	-25	-16	.
COc1ccc(CC(=O)Nc2c3c(nn2-c2ccccc2C)CS(=O)C3)cc1 (stereo unspecified)	i	12	1	66	4	10	.	4	eIF4H inh retest=-9;PABP FP inh retest=7
COc1ccccc1NS(=O)(=O)c1ccc2oc(SCc3ccc(F)cc3)nc2c1	i	-4	-20	-13	28	.	6	4
S=C(NCc1cccnc1)Nc1ccc(Cl)cc1Cl	i	2	1	-10	-10	.	-8	3
COc1ccccc1N1CCN(C(=O)c2ccc(NC3=NC4CS(=O)(=O)CC4S3)cc2)CC1 (stereo unspecified)	i	1	3	3	1	-14	-4	0
O=C(CSc1nnnn1C1CCCC1)Nc1ccc2c(c1)OCO2	i	-2	8	3	.	.	16	-6
CC(C)N(Cc1cnn(C)c1)C(=O)c1ccc(OC2CCN(Cc3ccccn3)CC2)cc1	i	5	2	20	-1	-6	-1	8
O=C(CNC(=O)c1ccccc1F)N/N=C/c1cn[nH]c1-c1ccccc1	i	2	6	-4	28	.	2	-1
CCCSc1nc(SCC(=O)NCc2ccccc2)c2c3c(sc2n1)COC(C)(CC)C3 (stereo unspecified)	i	-4	-4	-2	-19	-8	-4	-7
COc1cccc(NC(=O)CN2CCN(c3ccccc3F)CC2)c1	i	0	0	19	.	-38	-5	-4
CS(=O)(=O)N1CCc2cc(S(=O)(=O)Nc3ccc4oc5c(c4c3)CCCC5)ccc21	i	2	-8	-3	.	11	-3	-1
Cc1cc(C)nc(Sc2ccc(/C=C(\C#N)C(=O)Nc3ccccc3)o2)n1	i	-19	-1	-6	.	-31	23	-5
COc1ccc2c(CC(=O)OCC(=O)Nc3cc(C)c(C)cc3[N+](=O)[O-])coc2c1	i	2	3	12	6	.	-2	2
CC(C)c1ccc(NC(=O)c2ccccc2NC(=O)C2CCCCC2C(=O)O)cc1 (stereo unspecified)	i	1	-3	0	-5	2	.	2
O=C(Nc1ccccc1)c1nnn(Cc2ccccc2)c1NC(=O)C(F)(F)F	i	3	0	6	-84	-38	20	-13
Cc1ccc(Cl)cc1NC(=O)COC(=O)c1ccc(COc2ccc3c(C)cc(=O)oc3c2)cc1	.	.	.	-6	26	.	-3	-11
Cc1c(NC(=S)NC(=O)Cc2ccccc2)cccc1C(=O)O	i	-5	1	-5	-34	-26	-15	-1

Compounds shown so far that have a cyano group, in the order listed:
SMILES	Rce1 inh	MT1-MMP act inh	MT1-MMP act inh RFP	PABP FP inh	HIV Env fusion	Yeast UUG start	CSC inhib	eIF4H inh	others
CC(=O)C1=C(C)NC(SCC(N)=O)=C(C#N)C1c1cccnc1 (stereo unspecified)	i	-6	2	9	.	-12	22	-7
Cc1cc(C)nc(Sc2ccc(/C=C(\C#N)C(=O)Nc3ccccc3)o2)n1	i	-19	-1	-6	.	-31	23	-5

(continued)
SMILES	Rce1 inh	MT1-MMP act inh	MT1-MMP act inh RFP	PABP FP inh	HIV Env fusion	Yeast UUG start	CSC inhib	eIF4H inh	others
CC1(C(=O)N(Cc2ccccc2)Cc2ccccc2)CC1(Br)Br (stereo unspecified)	i	-10	-14	-1	.	-12	17	-1
COc1cc2c(cc1OC)CN(C(=O)CSC1=NCCS1)CC2	.	-1	0	.	14	-29	.	.
COC(=O)C1=C(C)NC(C)=C(C(=O)OC)C1C(=O)OCc1nnc(-c2ccccc2)o1	i	4	0	.	3	.	-7	.
CSc1ncc(C(=O)O)c(C)n1	i	0	2	-8	-18	-21	7	-6
COc1cccc(C(=O)Nc2ccc(C(=O)NCC(C)C)cc2)c1	i	3	5	-8	3	.	3	0
O=C(Nn1cnnc1)c1ccc(Br)s1	i	7	6	-1	7	.	-4	3
COc1ccc(CC(=O)NCc2n[nH]c(=S)n2C)cc1	i	0	1	-1	-2	-2	-9	-5
Cc1cc(Br)ccc1SCC(=O)OCC(=O)N1CCN(C(=O)c2ccco2)CC1	i	6	5	-3	.	18	-5	1
C#CCOCCOCCOCCNc1nc(N2CCN(C(=O)[C@H]([C@@H](C)O)n3cc(CCCCN)nn3)CC2)nc(N2CCN(C(=O)[C@H](Cc3ccc(O)cc3)n3cc(CCO)nn3)CC2)n1	i	1	0	16	3	0	4	6
CCN(CC)S(=O)(=O)c1ccc(NC(=O)COC(=O)c2ccc(-n3nc(C)cc3C)cc2)cc1	.	-2	-3	-5	.	-20	-4	-5
CCOc1cc(/C=C2\N=C(C)OC2=O)cc(Cl)c1OCC(=O)OC	.	0	7	.	-2	-9	-1	.
CCCS(=O)(=O)NC(=O)C1(C)CCCN(C(=O)c2ccc(C(=O)OC)cc2)C1 (stereo unspecified)	.	3	3	.	5	-10	.	.
CCN1CCC(O)(C(C(=O)OC)c2ccccc2)CC1 (stereo unspecified)	.	2	4	.	9	-8	.	.
Cc1cccc(Nc2nc(N3CCN(C)CC3)nc(N)c2[N+](=O)[O-])c1	i	-9	-3	-2	.	.	5	-6
Cc1ccc(NC(=O)COC(=O)c2ccc3c(c2)OCCO3)cc1S(=O)(=O)N1CCOCC1	i	8	5	0	0	.	0	-7
CC(=O)Nc1cccc(-n2nnc(SCC(=O)Nc3ccc(F)c(Cl)c3)n2)c1	i	3	-1	3	6	7	-7	3
Cc1oc(/N=C/c2ccc(Cl)cc2)c(C#N)c1C	i	-3	17	68*	-85	1	.	53*
COCCCN1C(=O)C(=O)/C(=C(/O)c2ccc(OC)cc2C)C1c1cccnc1 (stereo unspecified)	i	6	0	-2	-18	-26	-9	0
Cc1ccc(C(=O)N/C(=C\c2ccc(-c3cccc([N+](=O)[O-])c3)o2)C(=O)NCCCN2CCOCC2)cc1	i	-2	3	4	19	-13	13	-3
O=C(NCc1cccnc1)C(=O)NCC(c1ccco1)N1CCOCC1 (stereo unspecified)	i	0	1	-10	7	.	-11	1
COCCOC(=O)C1=C(N)Oc2c(oc(CO)cc2=O)C1c1ccccc1F (stereo unspecified)	i	3	7	5	.	-22	-3	-5
Cc1ccnc(NC(=O)c2ccc(NS(=O)(=O)/C=C/c3ccccc3)cc2)c1	i	3	0	.	-7	.	-5	.
COc1cccc(C(=O)Nc2ccc3nc(N4CCOCC4)cc(C)c3c2)c1	i	5	3	0	15	-6	9	-9
CC1CCN(C2=NC(=O)/C(=C/c3ccccc3F)S2)CC1	i	-1	2	-6	-34	-30	-9	-7
CN(CC(=O)NCCN1CCCCCC1)S(=O)(=O)c1cccc2nsnc12	i	1	-4	-4	14	-7	0	-7
CSc1ncccc1C(=O)OCC(=O)Nc1ccc(Cl)cn1	.	4	-4	.	.	-18	-18	.
COc1ccc(OC)c(C(C)NC(=O)C(C)Cc2ccccc2)c1 (stereo unspecified)	i	1	2	-2	0	-6	-15	-10

Sorted by molecular weight (rising): part of the list above.
SMILES	Rce1 inh	MT1-MMP act inh	MT1-MMP act inh RFP	PABP FP inh	HIV Env fusion	Yeast UUG start	CSC inhib	eIF4H inh	others
COc1cccc(C(=O)Nc2ccc3nc(N4CCOCC4)cc(C)c3c2)c1	i	5	3	0	15	-6	9	-9
COCCCN1C(=O)C(=O)/C(=C(/O)c2ccc(OC)cc2C)C1c1cccnc1 (stereo unspecified)	i	6	0	-2	-18	-26	-9	0
CCN(CC)S(=O)(=O)c1ccc(NC(=O)COC(=O)c2ccc(-n3nc(C)cc3C)cc2)cc1	.	-2	-3	-5	.	-20	-4	-5
